Source: PubChem (National Center for Advancing Translational Sciences (NCATS))
Six1-Eya2 inh – Six1/Eya2 interaction inhibition. Q15475+O00167. AlphaScreen GST-Six1/His-Eya2 binding, biochemical; stronger effect = lower value; control for the full effect not named in the record. activity change, % (no concentration beside the values). 0.56% of 360,000 active. AID 651725; in the data active = activity change below about -65%; inconclusive = about -30% to -65%; inactive = above about -30%; note: % is set by controls: 0 for no effect and ±100 for the full control effect; compound concentration not given in the record
Target sequence (O00167 whole entry, looked up): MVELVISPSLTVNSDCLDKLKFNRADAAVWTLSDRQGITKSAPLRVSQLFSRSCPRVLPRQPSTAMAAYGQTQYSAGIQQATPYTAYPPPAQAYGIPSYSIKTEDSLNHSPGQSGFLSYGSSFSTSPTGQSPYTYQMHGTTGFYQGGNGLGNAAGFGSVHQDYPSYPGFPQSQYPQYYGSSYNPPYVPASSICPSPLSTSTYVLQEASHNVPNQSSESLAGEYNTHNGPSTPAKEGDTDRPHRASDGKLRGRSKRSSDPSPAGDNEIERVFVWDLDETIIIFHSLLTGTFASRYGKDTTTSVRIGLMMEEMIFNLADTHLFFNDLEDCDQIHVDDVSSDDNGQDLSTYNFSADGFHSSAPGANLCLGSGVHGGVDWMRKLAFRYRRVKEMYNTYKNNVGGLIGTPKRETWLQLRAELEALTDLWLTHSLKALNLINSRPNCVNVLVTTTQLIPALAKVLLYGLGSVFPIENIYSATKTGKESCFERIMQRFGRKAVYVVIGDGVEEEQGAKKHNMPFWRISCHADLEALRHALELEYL
Target sequence (Q15475 whole entry, looked up): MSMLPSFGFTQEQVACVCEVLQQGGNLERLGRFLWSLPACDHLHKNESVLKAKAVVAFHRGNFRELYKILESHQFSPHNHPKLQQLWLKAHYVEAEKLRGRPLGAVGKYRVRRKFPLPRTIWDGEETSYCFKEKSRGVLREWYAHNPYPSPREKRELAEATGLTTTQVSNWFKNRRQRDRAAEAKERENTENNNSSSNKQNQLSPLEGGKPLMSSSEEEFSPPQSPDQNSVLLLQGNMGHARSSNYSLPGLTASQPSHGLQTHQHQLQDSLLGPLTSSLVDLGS
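AlphaScreen luminescence read after one hour at 37 °C in darkness. Pin-transferred compounds met GST-Six1 and His-Eya2 protein (5X stock 250 nM/500 nM) plus glutathione donor and Ni-chelate acceptor beads (5X, 50 ug/mL).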
TRPML1 ag – activates the human TRPML1 channel | AID 624414 | 0.12% of 410,000 active | TRPML1-expressing cells, Ca2+ dye fluorescence, FDSS; host cell line not named in the record; reference of the full effect not given here | activation, % (concentration not given with the values); in the data active = activation above about 50%; inconclusive = about 30% to 50%; inactive = below about 30%; note: 0% is about no effect; the text of the record puts the active cut at 80%
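Kinetic FDSS Ca2+ read in Tet-induced TRPML1-DL cells (ABD Ca8 dye plus quencher, 45-90 min RT loading): baseline, then compound, then 110 s agonist window; EC80 agonist 54-4 at 4uM final added afterwards for a 110 s antagonist window.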
TRPML1 inh – blocks the human TRPML1 channel; Q9GZU1; TRPML1-inducible cells, Ca2+ dye fluorescence, FDSS; stronger effect = lower value; inhibition of EC80 agonist-evoked calcium signal; activity change, negative = inhibition, % (no concentration beside the values); 0.02% of 390,000 active; AID 624415; in the data active means activity change below about -50%; inconclusive means about -30% to -50%; inactive means above about -30%;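 note: stimulus is agonist 54-4 at its EC80 concentration; % is set by controls: 0 for no effect and ±100 for the full control effect; compound concentration not given in the record; the text of the record puts the active cut at -80%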
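Calcium fluorescence in TRPML1-DL cells induced overnight with Tet: a 110 s read after compound pin addition, then a 110 s antagonist read after challenge with 54-4 at 4 uM final (EC80).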
D2 agonist – agonists of human D2 dopamine receptor (beta-arrestin); P14416; DiscoveRx PathHunter D2 beta-arrestin, luminescence, 90 min; 100% = 57 uM dopamine signal; activation, % (test concentration not listed); 0.084% of 360,000 active; in the data active = activation above about 40%; inconclusive = about 15% to 40%; inactive = below about 15%; note: compound concentration not given in the record; the text of the record calls up to 30% inactive
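Agonist mode: compounds alone added to overnight-plated D2 PathHunter cells for 90 min at 37 C, with 57 uM final dopamine (EC100) defining full response. Beta-arrestin recruitment detected by chemiluminescent reagent, read after 1 h at ambient temperature.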
PINK1 expr mod – PINK1 expression modulation. PINK1 immunofluorescence, high-content cytometry, 24 h. Potency, µM (doses to about 76.6 µM), for the others: top-dose activation (PINK1 increase), most hits filed as activators. 0.2% of 410,000 active. AID 624263; active = well fitted activation curve with a large enough effect; inconclusive = small, poorly fitted or top-dose-only effect; inactive = flat fitted curve, though single readings scatter; cell line not stated here;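 note: potency is the fitted concentration of half-maximal effect; % of control where 0% means no effect; nearly all actives have a fitted effect of over 65% in size; a mitochondrial uncoupler was the plate control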
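Cells are seeded, rested 12 hours, then given compound at five concentrations or DMSO for 24 hours. After fixation, blocking and antibody staining, PINK1 amount and mitochondrial localization are scored; CCCP serves as control.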
D2 PAM – human D2 receptor positive allosteric modulation | P14416 | DiscoveRx D2 beta-arrestin cells, luminescence, 90 min; 100% = 57 uM dopamine signal | potentiation, % (concentration not given with the values) | 0.23% of 360,000 active; active = potentiation of 50% or more; inconclusive = 30% to 50%; inactive = 30% or less;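 note: compound concentration not given in the record; tested on top of an EC20 dose of dopamine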
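PathHunter beta-arrestin assay in DiscoveRx D2 cells. Compounds were added with an EC20 of dopamine (50 nM final) for 90 min at 37 deg C. Luminescence was read 1 h after detection reagent, with 57 uM dopamine as the EC100 control.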
* marks the source's active call; other numbers are inactive results; ? = inconclusive; · = no result given; & = joins results of further samples; [ ] = remark or other dose.

SMILES	Six1-Eya2 inh	TRPML1 ag	TRPML1 inh	D2 agonist	PINK1 expr mod	D2 PAM
COC(=O)c1ccc(NC(=O)CC2C(=O)N(c3ccc(C)cc3)C(=O)N2Cc2ccc(OC)cc2)cc1 (stereo unspecified)	·	0.1	24.1	·	2.1%	·
COc1ccc(-c2nn3c(=O)cc(CN4CCN(C(=O)c5ccc(OC)c(OC)c5)CC4)nc3s2)cc1	·	-1.0	-10.7	·	0.2%	·
Cc1ccsc1C(=O)NCCc1c[nH]c2ccccc12	3.7	0.4	-13.2	0.0	1.3%	-12.7
O=C(CCCCCn1nnc2ccccc2c1=O)Nc1ccccc1Cl	0.4	-1.6	-8.6	2.1	0.6%	-3.2
COc1ccc(-c2cc3ccccc3n2CC(O)CNC(CO)(CO)CO)cc1 (stereo unspecified)	-1.8	-0.4	-8.8	-0.9	5.1%[38.3 µM]	-10.4
COc1ccc(OCC(=O)N/N=C2/C=C(C)CC2)cc1	6.8	-0.2	7.8	0.2	5.1%	-5.1
Cc1ccccc1C(=O)Nc1cccc(NC(=O)Cn2cnc3c(=O)n(C)c(=O)n(C)c32)c1	-3.0	3.2	17.9	-2.9	-4.6%[38.3 µM]	-3.4
CCCCCC(=O)NNC1=NCC(Cc2cccc(Cl)c2)S1 (stereo unspecified)	1.3	-0.7	8.6	-0.5	0.8%	-5.3
CCCC1(C(=O)OCC)NC(c2ccc(O)cc2)C2C(=O)N(c3cccc(C(C)=O)c3)C(=O)C21 (stereo unspecified)	-5.6	0.2	7.3	0.1	4.4%	-22.9
COc1ccc(C(CNC(=O)CSc2ccccc2F)N2CCOCC2)cc1 (stereo unspecified)	-1.4	3.4	-9.6	-1.3	-0.1%	-5.0
CCOCCCNCC(=O)Nc1ccc(OC(F)(F)F)cc1	4.7	1.4	0.3	-6.0	-1.2%	-2.9
CCCCNC(=O)N1c2ccccc2CC1C (stereo unspecified)	7.8	0.1	21.0	-4.3	-2.1%	-4.6
O=C(Cn1c(NCCCO)nc2ccccc21)c1ccc([N+](=O)[O-])cc1	1.8	0.0	4.9	-1.2	5.5%	1.8
C=CCc1c(C)[nH]c2c(OC)cccc2c1=S	-17.2	-0.3	-1.1	-10.8	0.0%	-9.0
CCOC(=O)C1(Cc2cccc(OC)c2)CCCN(C(=O)c2cc(C)oc2C)C1 (stereo unspecified)	-6.6	-0.6	2.0	1.7	0.4%	-3.1
Cc1ccc(C(=O)Nc2ccc([N+](=O)[O-])cn2)o1	-8.0	0.3	-2.4	5.3	-0.7%	-17.5
O=C(NC(=S)Nc1nc2ccccc2s1)c1cccs1	1.1	-0.2	0.4	-8.1	26.4%	-14.9
Cc1ccc(CNC(=O)CC(C)S(=O)(=O)c2ccc3c(c2)NC(=O)CO3)cc1 (stereo unspecified)	6.1	-0.5	-2.6	-5.1	-0.6%	13.1
COCCN1C(=O)N[C@@H](CCc2ccccc2)[C@@H](C(=O)OC)[C@H]1C	0.8	0.0	8.8	1.9	-0.1%	0.0
CCc1nc(SCC(=O)NNC(=O)C(C)C)c2ccccc2n1	2.3	-0.3	2.1	0.2	-2.8%[38.3 µM]	0.7
O=C(NC1CCCCC1)C(c1cccs1)N(C(=O)c1ccccn1)c1ccccc1 (stereo unspecified)	-1.9	1.6	-1.1	-4.9	-0.7%	-4.4
COc1cccc(N2CCN(S(=O)(=O)c3c(C)[nH]c(C)c3C(=O)N3CCCCC3)CC2)c1	-10.6	0.2	29.9	-1.8	-1.1%	-9.5
COc1cc(C2Nc3c(F)cccc3C3C=CCC32)cc(Br)c1OC (stereo unspecified)	7.7	0.2	-9.9	1.0	20.9%	-2.8
CN(Cc1cccc(Cl)c1Cl)C(=O)c1cccc(S(=O)(=O)N2CCN(Cc3ccccc3)CC2)c1	-12.2	1.5	22.3	-1.5	-0.1%	-9.4
Cc1cccc2sc(N(CCCN(C)C)C(=O)CN3C(=O)c4ccccc4C3=O)nc12	-4.3	-0.7	-3.7	-8.7	2.1%	-21.2
Cc1cc(C)cc(NC(=O)c2cccc(NC3=NC4CS(=O)(=O)CC4S3)c2)c1 (stereo unspecified)	-0.1	-0.1	-1.5	-9.7	-0.6%	-7.3
CCn1cc(C(=O)N[C@@H](CCSC)C(=O)NCCCO)c(=O)c2cc3c(cc21)OCO3	-1.6	0.2	-8.8	4.4	1.6%	-0.6
Cc1ccc(C(=O)N/C(=C\c2ccc(-c3ccc(Cl)cc3)o2)C(=O)NCCCN(C)C)cc1	-19.8	-0.7	-6.5	1.4	-4.5%	-2.1
CC1CCCCC12NC(=O)N(CC(=O)OCc1cccc(F)c1)C2=O (stereo unspecified)	3.3	-0.8	10.7	1.1	-0.6%	6.4
O=C(c1ccc2c(c1)N(Cc1ccc(F)cc1)CCS2)N1CCN(c2ccccc2)CC1	·	0.3	27.1	·	0.6%	·
C/C(=N\NC(=O)C1CCCN(S(=O)(=O)c2ccccc2)C1)c1cccnc1 (stereo unspecified)	-2.5	-0.8	14.6	-2.7	-0.8%	-8.0
O=C(CN1CCN(c2ccc([N+](=O)[O-])cc2Cl)CC1)N1CCOCC1	-3.3	1.3	8.9	-0.6	1.4%	1.0
Nc1c(-c2ccc(Cl)cc2)cnn1-c1cccc([N+](=O)[O-])c1	-12.9	-0.1	15.4	-3.8	?	-11.8
Cc1ccc(OC(=O)CSc2nnc(-c3cccs3)o2)cc1C	·	2.7	29.7	·	1.0%	·
CCc1cc2c(SCC(=O)NC3CC3)ncnc2s1	0.8	1.2	8.1	-0.9	-0.5%	10.2
CC1CCN(C(=O)Cn2c(=O)n(CCCCCC(=O)NCc3ccccc3Cl)c(=O)c3sccc32)CC1	·	1.0	6.9	·	1.5%	·
Cc1ccc(NC(=O)C(C)N2C(=O)C3C4CC(C(Br)C4Br)C3C2=O)cc1 (stereo unspecified)	-2.4	5.2	-8.6	-5.4	1.4%	-21.6
CC(C)c1ccc(NC(=O)C2Cc3c(-c4cccc(C(N)=O)c4)ccnc3O2)cc1 (stereo unspecified)	-4.1	-0.4	·	2.4	-0.3%	-6.3
O=C(/C=C/c1ccccn1)c1cc(Cl)cc(Cl)c1O	-3.3	·	·	1.2	0.8%	-4.6
CCn1c(CSc2nnc3ccccn23)nc2cc(C(=O)O)ccc21	-24.8	-0.6	6.2	-1.4	1.7%	-8.1
CC(=O)OCC(C)n1[nH]c2ccccc2c1=O (stereo unspecified)	5.5	-0.4	·	10.6	1.0%	-11.8
O=C(NNC(=S)Nc1cccc2ccccc12)c1cccc(Br)c1	-11.7	0.3	14.5	-3.9	-1.7%[38.3 µM]	-15.8
CCOc1cc(N2CCOCC2)c(OCC)cc1NC(=O)COC(=O)c1cc(C)oc1C	-0.6	0.3	1.4	-4.8	6.8%	-15.0
COCCn1cc(C(=O)NCCCOC(C)C)c2c3ccccc3n(C)c2c1=O	8.1	1.2&0.7	-9.5&-25.8	0.4	0.1%&-0.3%	-3.1
COc1cc(OC)cc(C(=O)NCCCNC(=O)c2cccnc2)c1	-0.2	0.4	-3.2	-0.7	3.0%	-8.3
COc1ccc(C(CNc2ncnc3sc(C)c(C)c23)N(C)C)cc1 (stereo unspecified)	10.1	1.5	?	-0.5	-0.8%	-10.3
CC1(C)Cc2cccc(OCC(=O)N3CCN(c4cccc(C(F)(F)F)c4)CC3)c2O1	3.7	2.0	24.9	-3.1	6.0%	-22.4
Cc1cc(C)n2cc(CSc3nnc(N)s3)nc2n1	1.7	-0.6	-2.7	-4.2	-1.4%	-4.5
O=C(CN(c1ccccc1)S(=O)(=O)c1ccc(F)cc1)NCc1cccs1	-1.1	0.1	10.7	-3.5	0.0%	-3.3
O=C1C=C(c2ccc3c(c2)OCO3)C[C@@H](c2ccc3c(c2)OCO3)C1	0.0	0.2	-3.7	-1.2	3.7%	-5.9
CCC(=O)NC(=S)Nc1cccc(C(C)=O)c1	0.0	-0.1	-20.6	-4.7	4.9%	8.5
CC(C)(C)c1ccc(Cc2n[nH]c(=S)[nH]c2=O)cc1	-2.6	1.6	-8.9	-0.4	1.4%	-1.0
COc1cc(/C=C2\S/C(=N/S(=O)(=O)Cc3ccccc3)NC2=O)c([N+](=O)[O-])cc1OC	-10.5	-0.8	-10.2	-4.7	-1.2%	-15.5
O=C(O)CNC(=O)c1ccc(NC(=O)/C(=C/c2ccccc2)NC(=O)c2ccccc2)cc1	-0.7	-0.2	-23.0	-4.9	3.2%	-0.1
O=C(O)CCc1ccc(-c2cccs2)n1CC(=O)Nc1ccccc1C(F)(F)F	2.2	-0.7&1.0	-2.9&26.3	2.2	-0.6%&0.3%	-0.1
CSc1ncccc1C(=O)Nc1ccncc1	1.7	-0.4	-21.8	0.5	0.4%	-1.0
COc1cccc(C(=O)OCC(=O)c2ccc(S(=O)(=O)N3CCCCC3)cc2)c1OC	-7.4	0.4	22.9	-5.3	2.7%	-0.5
Cc1ccc(-n2c(SCC(=O)N/N=C/c3ccccc3C(=O)O)nnc2-c2ccc(Cl)cc2)cc1	-1.8	0.7	-6.5	3.7	-0.3%	20.4
COc1ccc(-c2ccc(NCCN3CCOCC3)nn2)cc1OC	-3.1	0.0	-0.6	-2.6	1.5%	-10.2
COc1ccccc1N(CC(=O)NC1CCCC1)C(=O)CCC(=O)Nc1ccccn1	-16.5	-0.3	1.4	-1.5	-0.3%	-4.8

An excerpt from above with just PINK1 expr mod and Six1-Eya2 inh.
Molecule	PINK1 expr mod	Six1-Eya2 inh
COc1ccc(C(CNc2ncnc3sc(C)c(C)c23)N(C)C)cc1 (stereo unspecified)	-0.8%	10.1
CC1(C)Cc2cccc(OCC(=O)N3CCN(c4cccc(C(F)(F)F)c4)CC3)c2O1	6.0%	3.7
Cc1cc(C)n2cc(CSc3nnc(N)s3)nc2n1	-1.4%	1.7

New compounds follow.
SMILES	Six1-Eya2 inh	TRPML1 ag	TRPML1 inh	D2 agonist	PINK1 expr mod	D2 PAM
CNC(=O)C1=C(C)n2c(nc3ccccc32)NC1c1ccc(OC)cc1 (stereo unspecified)	4.9	0.8	-1.3	-0.6	1.6%	-1.9
CCOC(=O)CCCCNCc1ccccc1	-1.7	0.4	-16.5	-2.2	-0.9%	-20.4
CC(OC(=O)CNS(=O)(=O)c1ccc(C#N)cc1)C(=O)Nc1cccc(C#N)c1 (stereo unspecified)	-0.9	0.1	9.0	-3.7	1.3%	-2.5
CN(CC(=O)N1CCCCC1)S(=O)(=O)c1ccc(Cl)cc1	-0.7	0.4	10.0	1.1	-0.6%	-1.8
CCN(CC)C(=O)COc1ccc(N(C)S(=O)(=O)c2ccc(NC(C)=O)cc2)cc1	-0.6	·	·	-3.2	-0.4%	-6.9
